RN4220 kill – kills Staphylococcus aureus RN4220. inhibition, % (no concentration beside the values). actives 0.33% (n = 330,000). S. aureus RN4220 growth, OD600, 16 h;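 active = z-score of -3 or lower and OD600 up to 0.18 on both plates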;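 note: plate controls were untreated cells for no effect and reference antibiotic for full effect; stock transfer was 100 nL into about 80 µL; one replicate is shown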
Bead autofluor – flagged as autofluorescent in microsphere protease counterscreen | actives 3.1% (n = 360,000) | compound autofluorescence counterscreen, microsphere flow cytometry; active compounds read high | fluorescence intensity (test concentration not listed);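 active = at least 3 SD above the mean of all compounds, about 16000 in these data; inconclusive = too few beads counted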;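 note: 100 nL of 1 mM stock went into each well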
Sa ugtP lethal – kills S. aureus RN4220 lacking UgtP; S. aureus RN4220 ugtP deletion, OD600 growth, 16 h; some inactives read as strong as hits; growth inhibition, % (concentration not given with the values); actives 0.54% (n = 330,000);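 active = z-score under -3 and OD600 up to 0.15 on both plates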;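 note: plate controls were untreated wells for no effect and antibiotic for full effect; wells of about 80 µL received 100 nL stock; the first replicate is given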
PrP UTR inh – suppresses PrP 5' UTR mRNA reporter expression; cell-based PrP 5' UTR mRNA reporter, plate reader; inhibition, % (concentration not given with the values); actives 0.35% (n = 340,000); AID 488862;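 active = every replicate at 50% or more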;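 note: 0 = median of the neutral control wells; tested in H4 reporter cells; numbers are from one replicate; inactives centre near -14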
Mtb hypoxia rep – Mtb hypoxia fluorescent reporter inhibition | M. tuberculosis hypoxia-regulated fluorescent reporter, fluorescence | fluorescence inhibition, % (concentration not given with the values) | actives 0.1% (n = 300,000);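 active = 35 to 45% if threefold the growth effect, above 45% if 1.5-fold the growth effect; inactive = the rest, general growth blockers included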;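 note: wells of about 50 µL received 100 nL stock; 0% = vehicle wells and 100% = reference inhibitor wells; whole bacteria with a GFP reporter of the hypoxia response; strong numbers were not always called active; many hits fall short of the cut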
BJeLR lethal – kills HRASV12-expressing BJeLR cells. BJeLR (HRASV12) viability, CellTiter-Glo ATP luminescence, 48 h; reference of the scale not given here. inhibition, % (concentration not given with the values). actives 0.17% (n = 300,000);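 active = replicate mean above 50%; inconclusive = above 50% but judged a plate artefact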;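 note: 50 nL library stock added to about 25 µL; numbers are from one replicate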
Mtb hypoxia rep growth – recorded beside Mtb hypoxia rep, whose call it bears; growth inhibition, %; measured here: M. tuberculosis growth (absorbance);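 0% = vehicle and 100% = reference antibiotic; read after six days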
The depositor's hits bear a star; ? = inconclusive; . = no result given.

SMILES	RN4220 kill	Bead autofluor	Sa ugtP lethal	PrP UTR inh	Mtb hypoxia rep	Mtb hypoxia rep growth	BJeLR lethal
CCOC(=O)c1c(-c2cccs2)csc1NC(=O)c1ccco1	4.6	4706	3	2	4	1	-16
CCc1ccccc1NC(=O)C1CCN(c2cnccn2)CC1	1.9	3636	9	-16	7	7	2
O=C(Nc1ccc(S(=O)(=O)Nc2nccs2)cc1)c1ccc(=O)[nH]c1	.	2247	.	2	.	.	-6
CCOC(=O)c1ccc(NC(=S)Nc2cccc(N)n2)cc1	4.1	.	-3	-48	1	11	-3
Cc1ccc(NC(=O)Nc2cnccn2)cc1C	-4.2	3764	0	.	7	7	4
O=c1oc(-c2ccccc2)nc2sc3c(c12)CCC3	8.4	2358	-26	-25	14	5	13
Cc1ccc(-c2nnn(CC(=O)O)n2)cc1	2.9	3286	5	-16	.	.	-3
COc1ccc(OCc2nnc(SCC(=O)N3c4ccccc4Sc4ccc(Cl)cc43)o2)cc1	1.5	5625	-4	-18	4	0	5
Clc1ccccc1-c1nc(C=NN2CCOCC2)c2ccccn12	4.1	.	6	.	4	13	.
CCC1CCCCN1CC(=O)c1c(C)[nH]c2ccccc12 (stereo not given)	3.7	2324	6	-14	15	7	0

Fetched by structure from above (6):
SMILES	RN4220 kill	Bead autofluor	Sa ugtP lethal	PrP UTR inh	Mtb hypoxia rep	Mtb hypoxia rep growth	BJeLR lethal
Cc1ccc(NC(=O)Nc2cnccn2)cc1C	-4.2	3764	0	.	7	7	4
O=C(Nc1ccc(S(=O)(=O)Nc2nccs2)cc1)c1ccc(=O)[nH]c1	.	2247	.	2	.	.	-6
Clc1ccccc1-c1nc(C=NN2CCOCC2)c2ccccn12	4.1	.	6	.	4	13	.
CCOC(=O)c1ccc(NC(=S)Nc2cccc(N)n2)cc1	4.1	.	-3	-48	1	11	-3
O=c1oc(-c2ccccc2)nc2sc3c(c12)CCC3	8.4	2358	-26	-25	14	5	13
CCc1ccccc1NC(=O)C1CCN(c2cnccn2)CC1	1.9	3636	9	-16	7	7	2

(listing goes on)
SMILES	RN4220 kill	Bead autofluor	Sa ugtP lethal	PrP UTR inh	Mtb hypoxia rep	Mtb hypoxia rep growth	BJeLR lethal
Cc1ccc(Cn2c(=S)[nH]c3ccc(N4CCOCC4)cc3c2=O)o1	3.0	5817	0	-3	8	16	10
Cc1nc(C(=O)Nc2ccc(Cl)cc2Cl)nn1-c1cc(OC(C)C)c(Cl)cc1Cl	-3.5	9951	-11	-18	12	10	-7
CCOC(=O)C1(Cc2ccccc2)CCN(CC2CC=CCC2)CC1 (stereo not given)	3.8	5608	-7	-8	-13	-6	1
O=C1c2cc(Cl)ccc2OC2(CCNCC2)C12CC(c1ccccc1)=NO2 (stereo not given)	-3.1	3929	-1	3	5	-3	-9
CCc1ccc(S(=O)(=O)NN=Cc2ccc([N+](=O)[O-])o2)cc1	9.2	.	21	.	12	-2	.
NC(=O)C1(N2CCCCC2)CCN(c2nc(-c3ccccc3)cs2)CC1	-8.1	2394	24	-22	.	.	-5
COc1ccccc1-c1cc(C(=O)N2CCCc3ccccc32)no1	3.2	6325	17	-12	2	7	-5
CC(C)c1ccc(N2CC(C)(C)C2=O)cc1	15	4443	3	-18	3	6	-7
O=C(Nc1ccncc1)C1CCN(S(=O)(=O)c2ccccc2)CC1	2.4	.	4	-15	3	4	4
O=C(NCc1ccc(F)cc1)C1CCCN1S(=O)(=O)c1ccccc1C(F)(F)F (stereo not given)	3.1	5051	2	-19	11	9	.
COc1ccc(C(=O)Nc2ccc3ccccc3n2)cc1OC	5.2	3277	1	-51	1	-1	-10
O=C(O)c1cc(S(=O)(=O)Nc2ccccc2Cc2ccccc2)ccc1Cl	0.9	3941	12	-28	3	4	1
Cc1ccccc1N1CCN(C(=O)NCc2cccc(Cl)c2)CC1	-7.4	3813	0	-13	-11	-6	-7
CCC(Oc1cc(Cl)ccc1Cl)C(=O)N1CCCN(C)CC1 (stereo not given)	2.4	5886	6	-6	9	7	1
Cn1nnnc1N=N/C(=N/Nc1ccccc1)c1ccccc1	.	2856	.	13	.	.	66*
O=C(O)c1ccc(SCc2ccccc2)nc1	2.3	3632	9	-17	-3	6	1
Cc1ccc(N2CC(C(=O)Nc3nnc(SCCC4OCCO4)s3)CC2=O)cc1 (stereo not given)	-3.2	5371	2	-13	-9	6	-7
COc1ccc(NC(=O)CN(c2cccc(F)c2)S(C)(=O)=O)cc1OC	5.1	7833	9	-18	8	14	12
CN(CC(=O)Nc1ccc(S(=O)(=O)N2CCCC2)cc1)Cc1c(F)cccc1Cl	-1.1	3948	3	-37	4	8	7
Cc1cccc(N2CCC(NCc3c(C(=O)N4CCCCC4)nc4c(C)cccn34)CC2)c1	5.6	?	5	-4	12	-12	2
O=S(=O)(c1cccc(-c2csc(NN=Cc3ccco3)n2)c1)N1CCOCC1	4.1	.	-1	.	-8	6	.
O=C(O)c1ccccc1C1c2ccccc2Oc2ccccc21	10	3060	13	-17	20	7	.
COc1cccc2sc(Nc3nc(-c4ccccn4)cs3)nc12	99*	4516	99*	-33	-69	-6	37
O=S(=O)(Nc1ccc(OC(F)F)cc1)c1ccc(-c2ccon2)s1	2.3	4295	7	-15	6	-13	1
COC(=O)c1ccc(Cn2nnc3c(=O)[nH]c(C4CCCN(S(=O)(=O)c5ccccc5)C4)nc32)cc1 (stereo not given)	4.2	5692	8	-14	3	1	4
COc1ccc(S(=O)(=O)NC2CC(=O)N(c3ccc(C)c(C)c3)C2)cc1 (stereo not given)	-1.5	?	-3	-22	-9	10	-4
O=C(NC1CCCCC1)C(c1ccc(Cl)cc1)N1CCC2(CC1)OCCO2 (stereo not given)	-2.7	3142	-4	-21	8	1	-7
Cc1cccc(NC(=O)c2ccc(OCC3CCCO3)cc2)c1C (stereo not given)	2.8	2538	1	-38	5	4	16
CN(Cc1ccccc1NS(=O)(=O)c1ccc(Cl)cc1)C1CCCCC1	12	3962	5	-16	4	8	-1
C/C(N)=C(/C#N)C(=O)COC(=O)c1ccc(NC(N)=O)cc1	3.9	3677	-8	-9	9	1	1
O=C(CSc1nnnn1Cc1ccccc1)Nc1ccc2c(c1)OCCO2	1.2	3284	4	-14	.	.	3
O=C(CCCC(=O)N(CC(=O)NC1CCCCC1)Cc1ccco1)Nc1ccccn1	-14	2894	-3	-2	11	10	-3
CCOC(=O)C1=C(CC)OC(N)=C(C#N)C1c1cc(OC)ccc1OC (stereo not given)	4.5	21578*	0	-36	12	8	-5
CCOc1ccc(NC(=O)CN(C)C(=O)c2ccccc2OCc2cccc(C)c2)cc1OCC	-2.0	6182	-9	3	-6	-4	.
CCC(=O)Nc1ccc(N2CCC(C)CC2)cc1	-1.1	5374	-2	-27	.	.	1
COc1cccc(/C=N/NC(=O)c2ccc(OCc3cccc(Br)c3)cc2)c1	.	3799	.	1	.	.	-14
CC(=O)/C(=N\Nc1ccc(Cl)cc1)Sc1nnc(-c2ccccc2)n1-c1ccccc1	.	2195	.	-9	.	.	5
NS(=O)(=O)c1ccc(N/N=C/c2ccccn2)c([N+](=O)[O-])c1	.	3692	.	-20	.	.	-4
O=C(N/N=C/c1ccc(N2CCOCC2)cc1)c1ccccc1OCCOc1ccccc1	.	4547	.	-24	.	.	7
O=C(COC(=O)CCC(=O)c1ccc(F)cc1)Nc1ccccc1	2.9	3905	4	5	1	-4	2
Cc1cc(C)nc(N/C(=N\S(=O)(=O)Cc2ccccc2)Nc2cccc(Cl)c2C)n1	6.6	21814*	5	-8	-2	1	-4
C/C(CC(=O)Nc1ccccc1-c1ccccc1)=N\NC(=O)COc1ccc(C)cc1Br	.	2273	.	-13	.	.	3
COc1cc(NC(=O)c2ccc(NC3=NC4CS(=O)(=O)CC4S3)cc2)cc(OC)c1 (stereo not given)	4.7	4865	3	-22	2	-3	-13
O=C(CCn1ccc([N+](=O)[O-])n1)NC1CCCCCC1	3.6	2265	6	-20	22	20	-20
CCCSc1nnc(CSc2nc3nc(C)cc(C)n3n2)o1	7.1	9770	5	-8	14	12	-4
COCCOC(=O)C1=C(C)NC(=O)NC1c1cccs1 (stereo not given)	0.2	3044	-8	-14	0	2	1
C=CCn1cnnc1SCC(=O)N(C1CCCCC1)C1CCS(=O)(=O)C1 (stereo not given)	2.7	4308	1	-8	11	6	.
CC1CCCCC1NC(=O)Cn1[nH]c(=O)c2ccccc2c1=O (stereo not given)	3.2	4650	2	-16	.	.	-4
CCn1c(SCC(=O)NC2CCCC2)nnc1-c1ccco1	3.8	3905	-1	-8	5	8	-4
Cc1ccc2nc(NC(=O)CN3C(=O)C4CC=CCC4C3=O)sc2c1 (stereo not given)	1.3	3267	-5	-6	-10	-6	.

(further entries)
SMILES	RN4220 kill	Bead autofluor	Sa ugtP lethal	PrP UTR inh	Mtb hypoxia rep	Mtb hypoxia rep growth	BJeLR lethal
CCOC(=O)CCSc1n[nH]c(=S)s1	4.1	5417	0	-33	10	9	0
Cn1cc([N+](=O)[O-])c(C(=O)NN=Cc2cc3c(cc2Br)OCO3)n1	2.1	.	4	.	-1	12	.
COc1ccc(C(=O)N2CCCC(C(N)=O)C2)cc1S(=O)(=O)N1CCOCC1 (stereo not given)	5.5	3817	2	-15	16	7	.
COc1cc2[nH]c(=S)nc(NCc3ccccn3)c2cc1OC	7.0	2523	5	2	16	2	.
COc1cccc(NC(=S)N(Cc2ccc(C(=O)O)cc2)Cc2ccc(OC)c(OC)c2)c1	-0.2	3237	6	4	5	-1	-1
CCOc1ccc(CCNC(=O)c2cccc(S(=O)(=O)N3CCOCC3)c2)cc1OCC	3.0	4108	13	-22	2	8	8
O=C(CSC1=NCCS1)NC1CCCC1	-6.2	4494	1	-4	-1	15	-3
Cc1ccc(N2C(=O)c3ccccc3C2(O)c2ncc[nH]2)cc1 (stereo not given)	4.8	2332	2	-7	7	11	2
C=CCN(C)NC(=O)Nc1ccccc1	7.3	2308	3	-33	14	0	.
Cc1cccc(-c2nnc(SCC(=O)Nc3cccc(C(=O)N4CCOCC4)c3)n2C)c1	8.1	1979	21	-18	2	9	-8
O=[N+]([O-])c1cc([N+](=O)[O-])c2n[nH]c(-c3ccccc3)c2c1	.	4055	.	-2	.	.	-9
COc1ccc(NC(=S)Nc2cc(S(=O)(=O)N3CCCCC3)ccc2OC)cc1	4.8	.	-4	.	-1	2	-3
O=C(COC(=O)C1Cc2ccccc2CN1C(=O)c1ccccc1Cl)Nc1ccc(N2CCOCC2)cc1 (stereo not given)	4.1	2053	3	-20	17	7	-9
O=C(CSCc1cccc(Br)c1)NN=Cc1ccc2c(c1)OCO2	-5.1	.	-2	.	5	-2	.
CS(=O)(=O)Nc1ccc(C(=O)NCc2ccccn2)cc1	0.6	9690	-1	-24	-8	8	.
O=C1C2C(c3ccc(F)cc3)N3C(=O)N(c4cccc(Br)c4)C(=O)[C@@]3(Cc3ccc(Cl)cc3)C2C(=O)N1C1CCCCC1 (stereo not given in full)	-0.6	.	4	.	15	12	.
COc1ccc(C(=O)COC(=O)/C=C/c2ccccc2[N+](=O)[O-])cc1	5.9	3546	-14	0	-5	1	.
COc1ccc(CNc2nc3ccccc3n2C)c(OC)c1	8.1	3754	-4	-135	7	5	9
O=C(CC1Nc2ccccc2NC1=O)Nc1cc(Cl)cc(Cl)c1 (stereo not given)	-8.5	22648*	-41	-12	-1	14	2
O=C(CCN1C(=O)/C(=C/c2cccs2)SC1=S)Nc1ccccn1	5.3	4835	5	6	4	15	0
O=C(CCC(=O)OCC(F)(F)C(F)F)Nc1ccc(Cl)cc1	0.8	17876*	0	-10	3	10	.
N#Cc1cccc(NC(=O)CSc2cccc[n+]2[O-])c1	4.8	3891	5	-12	7	6	.
Cc1cccc(C2(c3cccc(C)c3)CC2C(=O)NCC2CCCO2)c1 (stereo not given)	3.8	7635	-10	-22	7	4	0
CC(=O)c1c(C)nc(-c2ccc(Cl)cc2)nc1N	4.5	2357	-1	-103	-5	7	8
Cc1ccc(NC(=O)CNC(=O)c2ccco2)nc1	3.4	5499	7	-14	10	-1	11
COc1ccc(NC(=O)CSc2nnc3ccc(-c4ccccn4)nn23)cc1OC	0.8	6932	-2	-5	-2	10	-4
Cn1ccnc1C(O)c1cccc(OCc2ccccc2)c1 (stereo not given)	2.4	3631	7	-21	5	2	5
Cc1ccc(-c2ocnc2C(=O)N2CCOCC2)cc1	1.6	3033	7	-13	-2	-6	4
COc1ccc(C2N(c3cc(Cl)ccc3OC)C(=O)C3CCCN32)cc1OC (stereo not given)	-1.2	6325	0	-1	.	.	4

High-throughput results from PubChem.
